Cruzain Triton: qHTS Assay for Promiscuous and Specific Inhibitors of Cruzain (with detergent). Cruzipain (Trypanosoma cruzi), P25779. purified cruzain, Z-FR-AMC fluorescence, 0.01% Triton. Potency, µM, without a hit: max response, negative = inhibition, hits mostly inhibitors. 0.43% of 200,000 active. AID 1478, 2009; active = well fitted curve in the direction sought with a large enough effect; inconclusive = small, poorly fitted or top-dose-only effect, or another doubt; inactive = no such curve, though single readings can be large; an effect the other way counts as inactive or inconclusive;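 also: plate controls were neutral wells for no effect and buffer without enzyme for full effect; nearly all actives have a fitted effect of over 40% in size; top concentration of the series not given in the record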
Target sequence (P25779 123-467 limits assumed): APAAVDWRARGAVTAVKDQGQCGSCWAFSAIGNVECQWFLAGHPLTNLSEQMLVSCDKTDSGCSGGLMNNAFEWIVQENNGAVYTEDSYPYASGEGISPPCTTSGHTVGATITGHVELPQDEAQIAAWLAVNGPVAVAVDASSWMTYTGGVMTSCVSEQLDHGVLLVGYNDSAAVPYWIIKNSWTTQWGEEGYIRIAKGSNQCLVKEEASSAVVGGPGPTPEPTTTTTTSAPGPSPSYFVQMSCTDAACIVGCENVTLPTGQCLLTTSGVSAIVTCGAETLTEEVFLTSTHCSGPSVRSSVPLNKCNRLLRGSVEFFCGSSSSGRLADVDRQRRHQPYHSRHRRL
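Detergent-containing arm of a paired screen for aggregation-based inhibition: 0.01% Triton X-100 present. Cruzain at 1.5 nM cleaved 2 uM Z-FR-AMC at pH 5.5 with 5 mM DTT; AMC fluorescence gain over 60 s measured activity.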
SARS PLpro yeast: qHTS of Yeast-based Assay for SARS-CoV PLP; Potency, µM (titrated, usually from 32.9 µM), without a hit: at the highest dose activity, positive = growth rescue; 0.19% of 330,000 active; S. cerevisiae expressing SARS-CoV PLpro, growth rescue; control for the full effect not named in the record; also: 0% is about no effect; nearly all actives have a fitted effect of over 55% in size; growth read by luminescence after 48 h
StopGo reporter: High Throughput Screening for Foot and Mouth Disease Virus Antivirals; Potency, µM (highest dose often 57.9 µM), inactives show top-dose signal change, negative = less light; human cells with a luciferase reporter of 2A StopGo recoding; control for the full effect not named in the record; 1.2% of 410,000 active; active = well fitted falling curve with a large enough effect; inconclusive = small, poorly fitted or top-dose-only effect; inactive = no such curve, though single readings can be large or run the other way; tested in HEK293T cells; also: % is scaled to controls: 0 for no effect and ±100 for the full control effect; nearly all actives have a fitted effect of over 45% in size; luciferase light after 4 h
RE007 growth inh: qHTS Assay for Inhibitors of the HIV-1 protein Vpr. AID 651644, 2012. 0.21% of 360,000 active. S. pombe RE007 Vpr strain, BacTiter-Glo ATP luminescence, 24 h; control for the full effect not named in the record. Potency, µM (top dose mostly 92.2 µM), for the others: top-dose activity change, negative = less growth; active = well fitted falling curve with a large enough effect; inconclusive = small, poorly fitted or top-dose-only effect; inactive = no such curve, though single readings can be large or run the other way;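 also: % is scaled to controls: 0 for no effect and ±100 for the full control effect; nearly all actives have a fitted effect of over 50% in size; the assay follows cell death caused by Vpr and the record does not say whether a fall means rescue or toxicity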
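Fission yeast RE007 carrying one integrated HIV-1 vpr copy, seeded at OD 0.01 in PMG+AL medium with 23 nL pinned compound. Grown 24 h at 30 degrees; viability read by BacTiter-Glo luminescence after 5 min.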
Cruzain noTriton: qHTS Assay for Promiscuous and Specific Inhibitors of Cruzain (without detergent); Cruzipain (Trypanosoma cruzi), P25779; purified cruzain, Z-FR-AMC fluorescence, no detergent; Potency, µM, for inactives: max response, negative = inhibition, actives largely listed as inhibitors; 2.3% of 200,000 active; AID 1476, 2009; active = well fitted curve in the direction sought with a large enough effect; inconclusive = small, poorly fitted or top-dose-only effect, or another doubt; inactive = no such curve, though single readings can be large; an effect the other way counts as inactive or inconclusive;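 also: plate controls were enzyme without inhibitor for no effect and buffer without enzyme for full effect; nearly all actives have a fitted effect of over 40% in size; top concentration of the series not given in the record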
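Purified cruzain at 1.5 nM, pre-incubated 15 min with compound at room temperature in 100 mM sodium acetate pH 5.5, 5 mM DTT, 0.00005% Triton X-100. Reaction started with 2 uM Z-FR-AMC; AMC fluorescence increase over 60 s gives rate.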
MARV entry inh: qHTS for inhibitors of binding or entry into cells for Marburg Virus. Potency, µM (highest dose often 37.8 µM), for the others: at the top dose activity change, negative = inhibition, usual class: inhibitors. 1.8% of 300,000 active. Marburg virus pseudotyped entry inhibition, cell reporter; control for the full effect not named in the record; about a third of the inactives were read at about 46 µM; active = well fitted inhibition curve with a large enough effect; inconclusive = small, poorly fitted or top-dose-only effect, or effect the other way; inactive = flat fitted curve, though single readings scatter; tested in HEK293 cells; about a fifth of its hits are not listed in these tables; also: % is scaled to controls: 0 for no effect and ±100 for the full control effect; luciferase read-out
LASV entry inh: qHTS for Inhibitors of binding or entry into cells for Lassa Virus | Lassa virus pseudotype entry inhibition, cell reporter; control for the full effect not named in the record | Potency, µM (series often up to 37.9 µM), inactives show at the highest dose activity change, negative = inhibition, most hits filed as inhibitors | 1.2% of 300,000 active | AID 540256, 2011; active means well fitted inhibition curve with a large enough effect; inconclusive means small, poorly fitted or top-dose-only effect, or effect the other way; inactive means flat fitted curve, though single readings scatter; tested in HEK293 cells; also: % is scaled to controls: 0 for no effect and ±100 for the full control effect; nearly all actives have a fitted effect of over 50% in size; luciferase read-out
NS1 inh: qHTS Assay for Inhibitors of Influenza NS1 Protein Function. S. cerevisiae slowed by influenza A NS1, growth recovery by OD600. 0.4% of 270,000 active. Potency, µM (highest dose often 46.1 µM), for inactives: at the highest dose activity, positive = more growth. AID 2326, 2010; also: actives are rising curves; nearly all actives have a fitted effect of over 50% in size
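In this qHTS, NS1 from influenza A is expressed in budding yeast, where it slows growth. Cells are switched from glucose to 2% galactose medium (pH 6.0, -URA), treated with compound, and growth recovery is read at OD600.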
Numbers without * were called inactive; ? = inconclusive; / = not tested or not shown; & = joins results of further samples; [ ] = another dose, or the depositor's remark. Unless noted, calls follow the shape of the dose curve; as a rule, active means well fitted rising curve with a large enough effect; inconclusive means small, poorly fitted or top-dose-only effect; inactive means no such curve, though single readings can be large or run the other way. Potency is read from the fitted curve at half-maximal effect.

SMILES	Cruzain Triton	SARS PLpro yeast	StopGo reporter	RE007 growth inh	Cruzain noTriton	MARV entry inh	LASV entry inh	NS1 inh
CC(C)N(Cc1nccn1C)C(=O)c1cc(COc2ccc(F)cc2Cl)on1	/	1%	-11%	-21%	/	1%	-4%	-2%
CCCCc1ccc(NC(=S)NCc2cccs2)cc1	-8.3%	-5%	45%[activator]	-1%[3.69 µM]	3%	-26%	-10%	-127%
CCOc1ccc(C(=O)/C=C/c2cc(OC)c(OC)c(OC)c2)cc1	/	-7%	?	-23%	/	?	?	-33%
CC(=O)Nc1ccc(NC(=O)C(C)OC(=O)CNS(=O)(=O)c2ccc(Br)cc2Cl)cc1 (configuration not stated)	/	-1%	10%	21%	/	3%	4%	-9%
CCC(C)Nc1nc(-c2c[nH]c3ccccc23)cs1 (configuration not stated)	/	-3%	44%[activator]	-3%	/	?	-9%	0%
Cc1ccccc1Nc1nnc(SCc2cc(=O)n3ccsc3n2)s1	2.3%	-3%	-8%	17%	-23%	7%	-4%	20%
COc1ccc(C(=O)CSc2n[nH]c(N)n2)cc1	-3.4%	2%	31%[activator]	22%	-2%	7%[46.1 µM]	10%	6%
CCNS(=O)(=O)c1ccc(C(=O)OCc2cc(=O)oc3cc(OC)ccc23)cc1	/	-1%	15%	-11%	/	-23%	-11%	-9%
CCCCn1c(CN2CCN(c3ccc(OC)cc3)CC2)nc2c1c(=O)[nH]c(=O)n2C	-1.0%	/	0%	/	-2%	-10%[46.1 µM]	1%[46.1 µM]	/
Cc1cc(OC(=O)C(C)(C)C)c([N+](=O)[O-])c(=O)[nH]1	/	-1%	0%	-14%	/	-15%[46.1 µM]	4%[46.1 µM]	/
CCN(CC(=O)Nc1ccc2c(c1)OCO2)Cc1nc2ccccc2c(=O)[nH]1	-2.2%	0%	10%	-7%	-3%	-6%[46.1 µM]	-9%	-5%
Oc1ccc(C=NNc2ccccn2)c(O)c1	/	/	11%	-24%	/	?	?	/
COc1ccc(/C(O)=C2/C(=O)C(=O)N(CCN3CCOCC3)C2c2ccccn2)cc1OC (configuration not stated)	-7.4%	-10%	-4%	81%	6%	?	11%	8%
COc1ccc([C@@H]2[C@H]3C(=O)N(c4cccc(C(F)(F)F)c4)C(=O)[C@H]3ON2C)cc1	-1.5%	-6%	-17%	-27%	16%	18%	3%	9%
COc1ccccc1N1CCN(C(=O)CCc2ccccc2)CC1	/	-1%	2%	6%	/	5%[46.1 µM]	-6%[46.1 µM]	-10%
CCN(CC)CCNC(=O)C12CC3CC(CC(C3)C1)C2	1.0%	4%	-1%	13%	7%	19%	-1%	7%
CS(=O)(=O)Nc1ccccc1NS(C)(=O)=O	/	2%	3%	10%	/	-1%[46.1 µM]	12%[46.1 µM]	3%
COc1ccc(Sc2cc(C(F)(F)F)nc(-c3ccccn3)n2)cc1	-4.4%	-14%	-3%	-12%[3.69 µM]	9%	-8%	-15%	-37%
CCCCOc1ccc(C(=O)NC(=S)Nc2ccc(CN3CCOCC3)cc2)cc1	-2.4%	0%	-29%	17%	-8%	-1%	-2%	7%
COC(=O)c1cccc(NS(C)(=O)=O)c1	/	0%	5%	4%	/	2%[46.1 µM]	1%	4%
COc1ccc(-n2c(SCc3ccccc3)nc3c([nH]c4ccccc43)c2=O)cc1	-1.1%	/	0%	/	0%	/	?	/
Cc1c(C)c2ccc(O)c(CN3CCCC3)c2oc1=O	/	1%	0%	-4%	/	/	/	2%
Cc1cc(C)n2nc(C(=O)N/N=C/c3cn(C)nc3C)nc2n1	/	-1%	-12%	16%	/	/	/	-2%
COc1ccccc1N1CCN(Cc2cccs2)CC1	0.9%	-9%	/	-1%	6%	10%	-2%	2%
CC12CCC(=O)N1C(C(=O)NNC(=O)c1ccc(Br)cc1)CS2 (configuration not stated)	/	0%	-20%	-30%	/	-8%	-9%	/
CCC(C)Sc1cc(C(F)(F)F)c(C(=O)Nc2ccc(Cl)cc2)cn1 (configuration not stated)	/	-2%	?	3%	/	?	?	3%
C=CCNC(=O)CC1Nc2c3ccccc3nc(=S)n2C1=O (configuration not stated)	/	0%	0%	-28%	/	11%	0%	/
CCCN1CCC(=NNc2ccc(S(=O)(=O)N(CC)CC)cc2[N+](=O)[O-])CC1	/	-4%	-17%	15%	/	?	-38%	5%
N/C(Cc1ccc(Cl)cc1)=N\OC(=O)Cc1ccc([N+](=O)[O-])cc1	-11%	-87%	-9%	-22%	-14%	5%	?	-30%
Cc1cc(C)cc(N(CC(=O)Nc2ccc(-c3nc4ccc(C)cc4s3)cc2)S(C)(=O)=O)c1	-17%	-6%	11%	-7%	-29%	?	10%	-17%
Cc1ccc(C)c(Nc2nn3c(=O)c4ccc(C(=O)NCCC5=CCCCC5)cc4nc3s2)c1	-3.8%	/	?	/	-10%	/	?	/
CCc1c(C(=O)N2CCN(c3ccccc3F)CC2)[nH]c(C)c1C(C)=O	-2.0%	4%	-3%	31%	16%	?	-19%	-14%
COc1cc(OC)cc(C(=O)Nc2c(F)cccc2F)c1	6.7%	-22%	13%	20%	-14%	11%	0%	1%
CCn1c(SCC(=O)Nc2ccccc2F)nnc1-c1cnccn1	/	24%	-4%	0%	/	/	/	6%
O=C(Nc1ccc(C(F)(F)F)cc1)c1cc(S(=O)(=O)NC2CCCCCC2)ccc1F	-0.5%	/	-2%	/	-2%	/	-4%[46.1 µM]	/
CCc1ccc(NCc2cccn2-c2nnc(N3CCCCCC3)s2)cc1	-8.3%	/	?	/	4%	?	/	/
CN(Cc1nc2ccccc2c(=O)[nH]1)C(=O)c1cc(-c2ccc(Br)cc2)nc2ccccc12	/	/	-23%	-13%	/	0%	1%	/
Cc1ccc(N2C(=O)CC(NNc3nc4ccccc4s3)C2=O)cc1C (configuration not stated)	-1.5%	2%	-19%	-1%	-4%	-6%	-5%	10%
CC(C)Oc1ccccc1/C=N/NC(=O)C1CCCC1	/	16%	-8%	-2%	/	15%[46.1 µM]	17%[46.1 µM]	-1%
O=C1c2ccccc2C(=O)N1c1ccc(S(=O)(=O)N2CCCCC2)cc1	/	1%	?	0%	/	/	/	4%
CC(C)c1ccc(N2C(=O)C(Cl)=C(N3CCOCC3)C2=O)cc1	/	7%	-6%	6%	/	11%[46.1 µM]	-4%	6%
COc1ccc(-c2[nH]ncc2CN2CCCC(C(=O)c3cccc(OC)c3)C2)cc1 (configuration not stated)	/	-1%	-7%	-3%	/	?	-19%[46.1 µM]	1%
COc1ccc(CN2CCC(Oc3ccc(C(=O)N4CCCC4)cc3)CC2)c(F)c1	/	-2%	-13%	-8%	/	-15%	-18%	16%
CC(=O)c1csc(COc2cc(Cl)cc(Cl)c2)n1	/	1%	17%	47%	/	12%	?	-2%
COc1ccc(-c2noc(COc3ccc(Br)cc3C)n2)cc1OC	-6.4%	/	-1%	/	?	26%[46.1 µM]	-11%[46.1 µM]	/
O=C(COC(=O)c1ccc(Cl)s1)c1ccc[nH]1	/	0%	20%	13%	/	3%[46.1 µM]	?	/
C=CCn1c2c(c(=O)[nH]c1=S)CN(C(C)c1ccccc1)CN2 (configuration not stated)	/	1%	-13%	0%	/	/	/	4%
CCn1c(SCC(=O)Nc2ccc(OC)c(S(=O)(=O)N3CCCCC3)c2)nnc1C1CC1	/	0%	-18%	1%	/	1%	-13%	/
Cc1c(/C=N/NC(=O)c2ccc3c(c2)OCO3)cnn1C	-3.1%	-4%	38%[activator]	4%	7%	-6%	0%	-1%
Cc1cc(-c2ccc(C)c(S(=O)(=O)N3CC(=O)Nc4ccccc43)c2)on1	/	-3%	-5%	4%	/	/	/	?
COc1ccc(NC(=O)COc2ccccc2Cc2ccccc2)cn1	/	1%	-29%	-22%	/	?	?	/
COCC(=O)Nc1cccc2ccccc12	7.2%	-1%	-4%	19%	-17%	-10%	4%	8%
Cc1ccc(NC(=O)N2CCC(C(=O)NCc3ccc(F)cc3)CC2)cc1	0.5%	-4%	7.1µM*	18%	-6%	2%	-17%	-5%
COc1ccccc1-c1nnc(NC(=O)Cc2ccccc2)o1	/	-6%	13%	-1%	/	/	/	-2%
Cc1cc(=O)oc2cc(NC(=O)Cc3ccccc3[N+](=O)[O-])ccc12	/	2%	22%	3%	/	/	/	28%
COC(=O)Nc1cc(C(=O)c2ccc(Cl)cc2Cl)c[nH]1	/	0%	-1%	7%	/	/	/	1%
Fc1ccccc1CN1CCN(c2ncccn2)CC1	/	3%	-4%	-1%	/	5%	8%	-3%
COc1ccccc1NC(=O)c1ccc(NC(=O)COC(=O)C(C)C)cc1	-3.9%	-13%	-24%	-10%	3%	3%	24%	-13%
CC(C)(O)C#Cc1ccc(C(=O)NCc2ccccc2F)cc1	-0.8%	?	35%[activator]	-24%	1%	?	21%	-12%
COc1ccccc1CNC(=O)C1CC(c2c(Cl)cccc2Cl)=NO1 (configuration not stated)	-0.4%	-12%	14%	0%	-8%	/	/	-61%
Continuation.
SMILES	Cruzain Triton	SARS PLpro yeast	StopGo reporter	RE007 growth inh	Cruzain noTriton	MARV entry inh	LASV entry inh	NS1 inh
CC1(OC(=O)C2CCCC2)C(=O)C=C2C=C(c3ccsc3)OC=C2C1=O (configuration not stated)	-5.1%	0%	-15%	-23%	-15%	4%&4%[14.2 µM]	/	-27%
CC(C)c1ccc(NC2CCCN(C(=O)CCN3CCOCC3)C2)cc1 (configuration not stated)	/	-5%	-12%	-11%	/	/	/	1%
O=C(O)c1cccc(C(=O)Cc2ccccc2)c1	2.3%	?	19%	6%	-1%	-12%	24%	2%
Cn1c(=S)c2[nH]c(SCCC(C)(C)C)nc2n(C)c1=O	/	/	-20%	32%	/	?	-3%	/

Not a hit list, and some 4.7% of all compounds hit somewhere here.
